VCAM-1 rise: enhancers of VCAM-1 display on endothelial cells, cell-based, plate reader, pooled HUVEC, TNFa stimulus (AID 455); HUVEC TNFa-induced VCAM-1 immunofluorescence, plate reader; numbers were filed only for top-ranked candidate wells; augmentation, % at 5 µM; 10,000 compounds, 0.2% hits;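 active = a compound raising TNF-alpha-driven VCAM-1 surface staining, with its hit status upheld on visual or statistical review; inactive = the rest, including hits rejected on review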;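 note: 0% = TNFa with vehicle and 100% = strongest image-checked hit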
26S disassembly: blocks ATP-dependent breakdown of the yeast 26S proteasome. anti-FLAG beads, GFP-proteasome disassembly, flow cytometry. inhibition of disassembly, % (no concentration beside the values). 24,000 compounds, 0.2% hits. AID 751;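 active = above 40%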;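 note: plate controls were ATP control with full disassembly for no effect and ATP-gamma-S intact proteasomes for full effect; higher percent means more bead fluorescence retained so stronger block of disassembly; stock transfer was 100 nL into about 10 µL; wells with too few beads may also be inconclusive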
Starred values were filed as active, the others as inactive; i = inactive; x = no result given. These rows are one share of the data; count on the stated rates, not on these rows.

smiles	VCAM-1 rise	26S disassembly
Cc1ccc(-n2c(Cc3cccn3C)nnc2SCC(=O)NCc2ccc3c(c2)OCO3)cc1	i	-1.2
COc1cccc(C2CC(c3ccc(F)cc3)Nc3nc(N)nn32)c1 (stereo unspecified)	i	-0.9
CCOc1ccc(OC(=O)c2cccnc2)cc1	x	-2.4
CCOC(=O)C1CCCN(Cc2nc(N)nc(Nc3ccc(C)cc3)n2)C1 (stereo unspecified)	i	7.2
O=C(CN1C(=O)c2ccccc2S1(=O)=O)NC1CCCCCC1	x	2.1
COc1ccc(C2C(C(=O)N3CCOCC3)c3ccccc3C(=O)N2c2ccc(OC)cc2)cc1 (stereo unspecified)	x	-0.1
O=C(NC1(C(F)(F)F)C(=O)Nc2c1c(=O)[nH]c(=O)n2Cc1ccco1)C1CC1 (stereo unspecified)	x	5.8
COc1ccc2cc(C(=O)N3CCCCCC3)sc(=O)c2c1OC	x	-0.2
Cc1[nH]nc2c1C1(C(=O)N(Cc3ccc(Cl)cc3)c3ccccc31)C(C#N)=C(N)O2 (stereo unspecified)	i	3.7
COC(=O)C(CCSC)NC(=O)CNC(=O)C1CCCCC1 (stereo unspecified)	x	-1.0
Cc1ccc(C)c(N(CC(=O)NCc2ccco2)C(=O)CCC(=O)Nc2ccccn2)c1	i	-0.6
CC(C)(C)OC(=O)N1CCC(c2c(C(=O)O)cnn2-c2ccc(Cl)cc2)CC1	x	1.8
CCOC(=O)C1=C(C)N=C2SC(C)C(=O)N2C1c1ccc(OCC)c(OCC)c1 (stereo unspecified)	x	-1.4
O=C1CC2CS(=O)(=O)CC2N1c1ccc(Oc2ccccc2)cc1 (stereo unspecified)	i	1.1
COc1cccc(-n2c(Cc3cc(=O)[nH]c(=O)[nH]3)nnc2SCC(=O)N2CCCCC2)c1	x	0.5
Cc1csc(NC(=O)NC2(C(F)(F)F)Oc3ccccc3O2)n1	x	-0.1
Cc1cc(NS(=O)(=O)c2ccc(NC(=O)COc3ccccc3C(C)C)cc2)no1	i	0.0
COCCCNC(=O)C1CC(=O)N(CCc2ccc(OC)c(OC)c2)C1 (stereo unspecified)	x	9.8
O=C1CC(/C=C/c2ccco2)=Nc2ccccc2N1	x	3.1
CCOC(=O)N1CCC(N2CC34C=CC(O3)C(C(=O)Nc3ccc(F)cc3)C4C2=O)CC1 (stereo unspecified)	x	-1.8
COc1cc2c(cc1OC)C(C)N(C(=O)CCN1C(=O)C3C4C=CC(C4)C3C1=O)CC2 (stereo unspecified)	x	0.0
COc1cccc(-n2nnc3c(=O)n(Cc4ccccc4F)cnc32)c1	x	1.5
O=C(CCN1C(=O)C2C3C=CC(C3)C2C1=O)Nc1ccccc1F (stereo unspecified)	x	-1.0
CC(C)Cc1cc(C(=O)Nc2ccc3c(c2)OCO3)no1	x	-0.5
N#CC1=C(N)N(c2ccccc2)C2=C(C(=O)CCC2)C1c1cccs1 (stereo unspecified)	i	5.2
Cc1ncc(CO)c2cc(S(=O)(=O)c3ccc(F)cc3)c(=O)oc12	x	0.2
COc1ccccc1CNC(=O)C1CCN(S(=O)(=O)N2CC(C)CC(C)C2)CC1 (stereo unspecified)	x	-2.0
COc1cc(CN2CCC(C(=O)NC3CCCC3)CC2)ccc1O	i	0.1
COc1ccc(OC)c(NC2c3ccccc3C(=O)N2c2cccnc2)c1 (stereo unspecified)	x	2.8
CCS(=O)(=O)N1CCCC(C(=O)NC2CCCCC2C)C1 (stereo unspecified)	x	-0.3

The list goes on; it opens with the four that closed the last part.
smiles	VCAM-1 rise	26S disassembly
COc1ccccc1CNC(=O)C1CCN(S(=O)(=O)N2CC(C)CC(C)C2)CC1 (stereo unspecified)	x	-2.0
COc1cc(CN2CCC(C(=O)NC3CCCC3)CC2)ccc1O	i	0.1
COc1ccc(OC)c(NC2c3ccccc3C(=O)N2c2cccnc2)c1 (stereo unspecified)	x	2.8
CCS(=O)(=O)N1CCCC(C(=O)NC2CCCCC2C)C1 (stereo unspecified)	x	-0.3
CCC(C)NC(=O)CS(=O)Cc1nc(-c2cccc(OC)c2)oc1C (stereo unspecified)	x	3.6
Cc1cc(C(=O)N2CCN(C(c3ccccc3)c3ccccc3)CC2)no1	i	0.2
O=C(O)c1cc(-c2ccccc2)nc2ccccc12	i	-0.9
CCN(C(C)=O)c1nnc(CSc2nc3ccccc3s2)s1	i	1.9
Cc1cccc(-c2nnc(NC(=O)c3ccc(Cl)cc3)o2)c1	x	-0.5
COc1cccc(C2=NOC(C(=O)NCCN3CCOCC3)C2)c1 (stereo unspecified)	x	-0.4
O=C(NC1CC1)c1cc2c(s1)-c1ccccc1OC2	x	0.3
CCCCCn1c(SCC#N)nc2cc(C(=O)NCC3CCCO3)ccc2c1=O (stereo unspecified)	x	0.8
CCOC(=O)CC(=O)CSc1nc2ccccc2c(=O)n1-c1ccc(C(=O)N2CCOCC2)cc1	x	0.9
COC(=O)C1C(=O)c2c([nH]c(C(=O)OCC3CCCO3)c2C)CC1C (stereo unspecified)	x	-1.4
COc1cc(C2N(c3ccc(F)cc3)C(=O)C3CCCN32)cc(OC)c1OC (stereo unspecified)	x	-3.4
CCN1CCCC1CNC(=O)COc1cc(=O)n(C)c2ccccc12 (stereo unspecified)	x	0.2
O=C(COC(=O)CCC1CCCC1)Nc1ccc(Cl)cn1	i	7.0
CCc1c(C)nc2ncnn2c1NCCc1ccc(OC)c(OC)c1	i	2.2
CCN(CC)c1ccc(C2CC(=O)Nc3cc(OC)c(OC)cc32)cc1 (stereo unspecified)	x	-0.9
COc1ccc(-c2cc(C(=O)N3CCN(C(c4ccccc4)c4ccccc4)CC3)no2)cc1OC	x	0.2
CN1CCN(C(=O)C(Cc2ccccc2)NS(=O)(=O)c2ccc3c(c2)CCC(=O)N3)CC1 (stereo unspecified)	x	1.3
Cc1cccn2c(=O)c3cc(C(=O)NCC4CCCO4)n(C)c3nc12 (stereo unspecified)	x	-2.3
O=C(Cn1cc2c(n1)CCCCC2)NC1CCCCCC1	x	0.6
CC(C)COC(=O)n1ccc(C(=O)N2CCCCC2)n1	x	-2.2
O=C(OC1CCOC1=O)c1ccc2ccccc2n1 (stereo unspecified)	i	0.5
Cc1nonc1NC(=O)N1CCCC1	x	-1.3
Cc1cccc(NC(=O)c2oc3ccc(S(=O)(=O)N4CCOCC4)cc3c2C)c1C	x	-1.1
CC(Oc1ccc(Cl)cc1Cl)c1nc(-c2ccc(NC(=O)c3cccnc3)cc2)no1 (stereo unspecified)	i	0.2
C=CCn1c(=O)[nH]c2cc(C(=O)N3CCN(c4cccc(Cl)c4)CC3)ccc2c1=O	x	0.4
CNS(=O)(=O)c1cccc(C(=O)OCC(=O)c2cc(C)n(-c3ccc4c(c3)OCO4)c2C)c1	i	1.9
c1ccc(CNC2=NCCC2)nc1	i	0.8
CN(c1ccccc1)c1nc(N2CCCC2)nc(-n2ccnc2)n1	x	2.4
CCOc1cc2[nH]c(=S)n(CC3CCCO3)c(=O)c2cc1OCC (stereo unspecified)	i	0.2
Cn1c(Cn2c(=O)sc3ccccc32)nnc1SCC(=O)NC1CCCCC1	x	-2.5
COC(=O)c1sc(Nc2ccccc2)nc1C	x	-0.1
Cc1sc2nc(SCC(=O)N3CCN(CCO)CC3)n(-c3ccccc3)c(=O)c2c1C	i	2.8
COc1ccc(N2CC(C(=O)NC3CC(C)(C)NC(C)(C)C3)CC2=O)cc1 (stereo unspecified)	x	0.4
CC(=O)Nc1ccc(S(=O)(=O)N2CCN(c3ccc(C)c(Cl)c3)CC2)cc1	x	-0.7
COc1ccc(N(CC(=O)N2CCN(Cc3ccc4c(c3)OCO4)CC2)S(C)(=O)=O)cc1OC	i	-1.0
CCOC(=O)c1cnc2nc(C)[nH]n2c1=O	x	-8.0
Cc1ccc(-n2ncc3c(=O)n(CC#N)cnc32)cc1C	x	-0.3
CCN(CCCNC(=O)Cn1cc2c(n1)CCCC2)c1cccc(C)c1	x	1.6
CCOc1ccccc1C1NC(=O)NC(C)=C1C(=O)OC1CCCC1C (stereo unspecified)	i	4.1
CCOc1ccccc1Nc1nnc(SCC(=O)N2CCCC2)s1	i	1.1
CC(C)(C)NC(=O)COC(=O)c1ccc(O)cc1	i	-1.3
COC(=O)c1cn(C(=O)c2ccc(Br)o2)c2ccccc12	i	-1.1
CC1CCCN(C(=O)CN2CCN(C(=O)c3ccco3)CC2)C1 (stereo unspecified)	i	0.1
CCOC(=O)c1ccc(NC(=O)CC2SC(=NC)N(C)C2=O)cc1 (stereo unspecified)	i	2.4
CCOC(=O)C1CCN(c2c(NCc3ccc(C(=O)NCCOC)cc3)c(=O)c2=O)CC1	x	1.2
O=S(=O)(NCC(c1cccnc1)N1CCN(c2ccccc2)CC1)c1cc(F)ccc1F (stereo unspecified)	i	-0.6
O=C(NCCCn1ccnc1)c1csc2ccccc12	i	-1.1
CC1CCN(CCC(=O)N2CCCc3c2c(=O)oc2ccc(O)cc32)CC1	x	-5.9
COc1cc2c(c(OC)c1)C(c1cccc(OC)c1OC)CC(=O)N2 (stereo unspecified)	x	-0.5
CC(=O)Nc1cccc(NC(=O)c2sc3ncn(CC(=O)N4CCCCC4)c(=O)c3c2C)c1	x	0.7
COc1ccc(-n2nc(C(=O)NCC(=O)N3CCN(c4ccccn4)CC3)c3ccccc3c2=O)cc1	x	0.1
CCOC(=O)c1[nH]c(C)c(CN(CCc2ccccc2)S(C)(=O)=O)c1C	x	-0.7
Cc1c(C(=O)OC2CCCCC2)[nH]c2c1C(=O)CC(C)(C)C2	i	1.0
COC(=O)c1[nH]c2c(c1C)C(=O)CC(c1cc(OC)ccc1OC)C2 (stereo unspecified)	i	0.1
Cc1ccccc1CS(=O)(=O)Cc1ccc(C(=O)NCc2cccnc2)o1	x	-0.3
COc1ccc(-c2cc(C(F)(F)F)nc(SCC(=O)NCc3ccco3)n2)cc1OC	i	-0.6
CC1(C)Cc2c(c(N3CCOCC3)nc3sc(C(=O)N4CCCCC4)c(N)c23)CO1	x	-0.4
CC(CCc1ccccc1)NC(=O)c1nnc(Cc2ccc(F)cc2)o1 (stereo unspecified)	x	0.3
N#Cc1ccccc1NC(=O)CSc1nnc(-c2ccccc2)n1-c1ccccc1	i	1.5
Clc1ccc2nc(N3CCCCC3)sc2c1	x	-2.5

(further entries)
smiles	VCAM-1 rise	26S disassembly
O=C(c1ccc(S(=O)(=O)N2CCOCC2)cc1)N1CCc2ccccc2C1	i	-1.6
COC(=O)c1cccc(S(=O)(=O)N2CCC(C)CC2)c1	i	-1.0
CCN(CC)S(=O)(=O)c1cccc(-c2nnc(SCC(N)=O)n2CCc2ccccc2)c1	i	3.3
CCOC(=O)N1CCN(C(=O)Cn2c(=O)sc3ccccc32)CC1	x	-2.5
COc1cc2c(cc1OC)C(C(=O)NCCN1CCOCC1)C1c3ccccc3CCN1C2=O (stereo unspecified)	x	0.4
CC1CN(C(=O)CSc2nnc(-c3ccncc3)n2-c2ccccc2)CC(C)O1 (stereo unspecified)	i	0.2
CC(=O)N1CCc2cc(S(=O)(=O)NC3CCCc4ccccc43)ccc21 (stereo unspecified)	x	-0.2
O=C1c2ccccc2C(=O)N1CC(O)Cn1nnc2ccccc21 (stereo unspecified)	i	-2.6
CC(=O)N(c1ccc(Br)cc1)C1C=CS(=O)(=O)C1 (stereo unspecified)	i	0.4
CCOc1ccc(NC(=O)CN(c2cc(C)cc(C)c2)S(=O)(=O)c2c(C)noc2C)cc1	i	0.1
COc1ccc(C(CC(=O)O)NC(=O)COc2ccccc2)cc1 (stereo unspecified)	x	-0.8
COc1nnc(-c2ccc(C)c(S(=O)(=O)NCCO)c2)c2ccccc12	i	-1.6
COc1cccc(CN2C(=O)CCC2(C)C(=O)NC2CCCCCC2)c1 (stereo unspecified)	x	-0.3
COc1ccc(CCNC(=O)C2CCN(S(=O)(=O)N3CCOCC3)CC2)cc1OC	x	-0.4
Nc1ccc(C(=O)OCCCc2nc3ccccc3[nH]2)cc1	i	-1.5
COc1ccc(C2CC(=O)NC3=C2C(=O)CCC3)cc1Cl (stereo unspecified)	x	0.2
Cc1ccc(-n2nc3c(c2NC(=O)c2c(-c4ccccc4Cl)noc2C)CS(=O)(=O)C3)c(C)c1	x	1.0
COCCCNC(=O)c1cc2c(=O)n(C)c3ccccc3c2n1C	x	-1.2
O=C(c1nn2c(C(F)(F)F)cc(-c3ccco3)nc2c1Br)N1CCCc2ccccc21	x	0.7
Cc1ccc(C2N(c3ccc(Cl)c(Cl)c3)C(=O)C3CCCN32)o1 (stereo unspecified)	i	0.4
Cc1cccc(NC(=O)c2sc3nc(-c4ccccc4)cn3c2C)n1	x	-0.1
CN(CC(=O)N1CCN(C2CCCCC2)CC1)S(=O)(=O)c1cccc2nsnc12	i	0.3
COc1ccc(/C=N/n2cnnc2SCc2ccc(OC)cc2)cc1	i	0.0
CCN1CCN(C(c2cccs2)C(C)NS(=O)(=O)c2ccc(Br)cc2)CC1 (stereo unspecified)	x	-1.2
CCN1CCN(CCCNC(=O)Cn2cc3c(n2)CCCC3)CC1	x	0.0
O=C(c1ccco1)N1CCN(C(=O)c2oc(=O)c3ccccc3c2-c2ccccc2)CC1	x	-1.5
O=C(c1cccc(F)c1)N1CCN(C(=O)C2CC2)CC1	x	-0.4

Assay outcomes: PubChem BioAssay, several laboratories
